# Screening data (PubChem)
# Calb biofilm kill – mixture kills Candida albicans biofilm cells. inhibition, % at 7.6 µM. C. albicans biofilm persisters + clotrimazole, fluorescence viability; primary screen in compound mixtures of four per well. hit rate 0.02% among 120,000. AID 1242;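 active = inhibition above 30.3% in the primary screen of four-compound pools, then above 30% when the compound was retested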;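 note: compounds exposed to preformed 24 h biofilms for 48 h; the number belongs to the whole pool; some results filed as inactive read as strong as hits; inactives centre near 12; 0% = biofilm with clotrimazole alone and 100% = kill control; retested singly at about 60 µM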
#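 Test system: C. albicans CAF4-2 wild-type biofilms; buffer or medium: RPMI/MOPS medium, pH 7.0; schedule: 24 h biofilm formation, then 48 h compound exposure, 37 °C; detection: Alamar Blue fluorescence; measure: percent inhibition of biofilm viability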
# An asterisk follows results filed as active. These rows are one share of the data, so the mix of outcomes need not match the whole.
SMILES,Calb biofilm kill
O=C(O)c1cccc(NC(=O)c2cc(S(=O)(=O)N3CCOCC3)cs2)c1,10.7
CC(C)(C)c1ccc(C(O)CCCN2CCC(C(O)(c3ccccc3)c3ccccc3)CC2)cc1 (stereo unspecified),12.1
CC1CC(NNC(=O)c2ccccc2)=Nc2ccccc2N1C (stereo unspecified),6.1
Cc1ccc(S(=O)(=O)Nc2c(C)nc3nc[nH]n3c2=O)c(C)c1,24.9
COC(=O)c1ccc(CSc2cc(C)c3cccc(C)c3n2)o1,-8.7
COc1ccc(N2CCN(C(=O)[C@H](Cc3c[nH]c4ccccc34)NC(C)=O)CC2)cc1,5.9
O=C(NC(Cc1ccccc1)C(=O)O)/C(=C\c1ccco1)NC(=O)c1ccccc1Br (stereo unspecified),13.6
O=C(/C=C/c1ccc([N+](=O)[O-])cc1)NCc1cccs1,5.6
Cc1ccc(S(=O)(=O)Cn2nnnc2C(CC(C)C)N2CCN(C)CC2)cc1 (stereo unspecified),-4.0
O=[N+]([O-])c1cc(S(=O)(=O)c2ccc(N3CCCCC3)c([N+](=O)[O-])c2)ccc1N1CCCCC1,-4.1
COC(=O)c1c(NC(=O)CC2SC(N)=NC2=O)sc2c1CCC(C(C)(C)C)C2 (stereo unspecified),6.5
COc1ccc(C(=O)CSc2nc(C)cc(C)n2)cc1[N+](=O)[O-],26.1
CC1=C(C(=O)Nc2ccccc2C(F)(F)F)C(c2ccc(C)s2)NC(=S)N1 (stereo unspecified),12.1
O=C(Nc1ccc(S(=O)(=O)Nc2ncccn2)cc1)c1cncc(Br)c1,8.0
COc1ccc2oc(=O)c(-c3cn4ccc(C)cc4n3)cc2c1,8.6
O=C(CSc1ncnc2sccc12)Nc1ccccc1,13.8
COc1ccc(N2CCN(c3c(S(=O)(=O)c4ccccc4)cnc4ccc(OC)cc34)CC2)cc1,20.3
COc1ccc(-c2cc([C@H]3[C@H]4C=CC[C@@H](C)[C@@H]4C(=O)N3Cc3ccccc3)ccc2F)cc1OC,13.5
CC1(C)CC=C(NNC(=O)c2cccnc2)C(=O)C1,6.3
CN1CCN(NC(=O)c2cn(-c3ccccc3)nc2-c2ccc(OC(F)F)cc2)CC1,7.0
CC1=C(C(=O)OCC2CCCO2)C(c2ccc(Cl)cc2)NC(=O)N1 (stereo unspecified),13.1
Cc1nc(SCC(=O)Nc2cc(C(N)=O)cc(C(N)=O)c2)c2c(C)c(C)sc2n1,21.4
COc1cc(S(=O)(=O)N2CCOCC2)ccc1NC(=O)COC(=O)COc1ccccc1,12.7
COc1cc(-c2nc(CN3CCCN(C(=O)c4ccco4)CC3)c(C)o2)ccc1F,17.4
O=C(NCCSc1c(-c2ccccc2)[nH]c2ccccc12)c1cc2ccccc2oc1=O,11.9
C/C(CC(=O)Nc1ccc2c(c1)OCO2)=N\NC(=O)OC(C)(C)C,6.6
Cc1cccc2sc(NC(=O)c3cccc(S(=O)(=O)N4CCc5ccccc54)c3)nc12,14.8
Cc1c(C=O)c2ccccc2n1CC(=O)NCc1ccccc1,-1.4
COc1ccc(C(=O)N/N=C/c2ccc(OC(=O)c3ccccc3)cc2)cc1,14.2
COc1ccc(/C=C2\CCCC3C2=NC(=S)NC3c2ccc(OC)cc2)cc1 (stereo unspecified),3.2
CCOC(=O)Cc1csc(NC(=O)c2cc(=O)c3ccccc3o2)n1,11.8
COc1cccc(C2SCC(=O)N2c2ccc(C)cc2)c1OC (stereo unspecified),7.4
O=C(N/N=C/c1ccncc1)c1cccc([N+](=O)[O-])c1,3.9
Cc1[nH]c(=O)[nH]c(=O)c1S(=O)(=O)N1CCCC(C(=O)NCc2ccc3c(c2)OCO3)C1 (stereo unspecified),8.3
O=C(/C=C/Nc1ccccc1Oc1ccccc1)c1ccco1,11.2
COc1cc2c(cc1OC)C(COc1ccccc1OC)N(C(=O)c1ccco1)CC2 (stereo unspecified),-2.0
COC(=O)CSc1nc(N)c(C#N)c(-c2ccc(O)cc2)c1C#N,-1.4
Cc1ccc(S(=O)(=O)N2CCOCC2)cc1NC(=O)COC(=O)c1cccnc1Cl,-0.8
COc1ccc(CCC(=O)NNC(=S)Nc2cccc(C(C)=O)c2)cc1,10.7
CSCC[C@H](NC(=O)OC(C)(C)C)C(=O)NCC1CCC(C(=O)O)CC1 (stereo partly specified),18.7
COc1ccc(C(=O)Nc2ccnc(-c3cccnc3)n2)cc1,9.6
CCOC(=O)c1[nH]cnc1C(=O)Nc1cccc(Cl)c1,8.4
COc1ccc(C(=O)NCC(=O)OCC(=O)c2ccc3c(c2)NC(=O)CO3)cc1,15.7
S=C(Nc1cccc(Cl)c1)NC1CC2CCCC(C1)N2C1CCCC1 (stereo unspecified),9.6
O=C(CSc1nncs1)Nc1ccc2c(c1)OCO2,-8.2
Cc1cccc(-n2c(Cc3cc(=O)[nH]c(=O)[nH]3)nnc2SCC(=O)Nc2cccc(C(F)(F)F)c2)c1,15.5
CCC/C(C)=N/NC(=O)c1ccccc1O,15.1
O=C(c1cnn(-c2ccccc2)c1)c1ccccc1O,26.6
COc1ccc(CCNC(=O)Cc2c(Cl)cccc2Cl)cc1,12.1
C/C=C/C=C\C(=O)Nc1cccc(C2=NOC3(C2)C[C@@H](C(N)=O)N(C(=O)c2cc([N+](=O)[O-])cc([N+](=O)[O-])c2C)C3)c1 (stereo partly specified),14.8
Cc1ccnc(N=Cc2c(O)ccc3oc4c(c23)CCCC4)c1,11.8
CCOC(=O)C1(CCOc2ccccc2)CCN(C(=O)c2cncs2)CC1,-13.7
COc1cc(CCNc2ccc3nnc(-c4ccccc4)n3n2)cc(OC)c1OC,13.2
CN(c1ccc(OCC(=O)N2CCOCC2)cc1)S(=O)(=O)c1ccc(Cl)cc1,3.5
CC/C(=N\NC(=O)CSc1ncccn1)c1ccc2c(c1)OCCO2,5.9
C=C(C)[C@@H]1CC=C(CN2CCC(CCOC)(C(=O)OCC)CC2)CC1,8.5
COC(=O)c1cc2c(cc1Cl)N1CCCCCC1=NS2(=O)=O,30.7
Cc1ccc(OCC(=O)Nc2ccc(F)cc2)cc1C,11.1
CC(C)SCc1cc(N2CCCC2)nc(-c2ccccc2)n1,24.1
Cc1ccc(C(=O)NC(=S)N2CCN(c3ccc([N+](=O)[O-])cc3)CC2)cc1,12.6

# Three entries already listed, sorted by formula weight, lowest first:
SMILES,Calb biofilm kill
Cc1ccnc(N=Cc2c(O)ccc3oc4c(c23)CCCC4)c1,11.8
CC(C)SCc1cc(N2CCCC2)nc(-c2ccccc2)n1,24.1
CN(c1ccc(OCC(=O)N2CCOCC2)cc1)S(=O)(=O)c1ccc(Cl)cc1,3.5

# Additional records follow.
SMILES,Calb biofilm kill
O=C(NCc1cccs1)c1ccc(S(=O)(=O)N2CCCCC2)cc1,-4.2
O=C1c2ccccc2C(=O)N1CC(=O)N1c2ccccc2Sc2ccc(C(F)(F)F)cc21,0.7
CC(=O)Nc1cc(-c2ccc(F)cc2)[nH]n1,3.5
Cc1cc(C)c2sc(N(CCCN(C)C)C(=O)CN3C(=O)c4ccccc4C3=O)nc2c1,-0.7
Cc1ccc(NC(=O)c2nc[nH]c2C(=O)NCC(=O)OC(C)(C)C)cc1,3.5
O=C(CSc1nc(-c2ccc(F)cc2)nc2ccc(F)cc12)Nc1cccc(C(=O)O)c1,7.3
CCOC(=O)C1(Cc2cccc(F)c2)CCN(Cc2ccc(COC)o2)CC1,26.4
C=CCC1(NC(C)c2ccccc2)CCCCC1 (stereo unspecified),-0.1
O=C(CCSc1nc(-c2ccc3c(c2)OCO3)cc(C(F)(F)F)n1)NCc1ccccc1,17.2
Clc1ccc(Nc2nc3cccnc3s2)cc1,-2.4
CCCCCCCC(=O)OCC(O)CO (stereo unspecified),-3.5
CCn1c(SCC(=O)N2CCCc3ccccc32)nc2c(c1=O)SC(C)C2 (stereo unspecified),14.2

# Some of the entries so far, with tabs.
Molecule	Calb biofilm kill
COC(=O)c1ccc(CSc2cc(C)c3cccc(C)c3n2)o1	-8.7
COc1ccc(N2CCN(C(=O)[C@H](Cc3c[nH]c4ccccc34)NC(C)=O)CC2)cc1	5.9
O=C(NC(Cc1ccccc1)C(=O)O)/C(=C\c1ccco1)NC(=O)c1ccccc1Br (stereo unspecified)	13.6
O=C(/C=C/c1ccc([N+](=O)[O-])cc1)NCc1cccs1	5.6

# The main list resumes; the five compounds before the break are reprinted first.
SMILES,Calb biofilm kill
C=CCC1(NC(C)c2ccccc2)CCCCC1 (stereo unspecified),-0.1
O=C(CCSc1nc(-c2ccc3c(c2)OCO3)cc(C(F)(F)F)n1)NCc1ccccc1,17.2
Clc1ccc(Nc2nc3cccnc3s2)cc1,-2.4
CCCCCCCC(=O)OCC(O)CO (stereo unspecified),-3.5
CCn1c(SCC(=O)N2CCCc3ccccc32)nc2c(c1=O)SC(C)C2 (stereo unspecified),14.2
COc1ccccc1NC(=O)C(=O)N1CCCC1,7.5
CCCCCc1nc2c(c3c1CCCC3)CCCC2,22.8
Cc1ccccc1NC(=O)/C(C#N)=C\c1ccsc1,17.5
CC(C)(C)c1nc2cc(Cl)c([N+](=O)[O-])cc2o1,17.7
Cc1ncc([N+](=O)[O-])n1Cc1ccccc1F,21.2
